Rce1 inhib – inhibitors of yeast Ras-converting enzyme | Q03530 | yeast membranes, quenched prenylated peptide cleavage fluorescence | calls only | hit rate 0.27% among 290,000 | AID 2563;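 active means fall in fluorescence gain of 50% or more versus controls, with final raw signal at or below 3038400; inconclusive means same 50% fall but final raw signal above 3038400; inactive means fall in fluorescence gain under 50%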;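 further: plate controls were neutral control wells for no effect and wells lacking membranes for full effect; tested at 10 µM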
Target sequence (Q03530 whole entry, looked up): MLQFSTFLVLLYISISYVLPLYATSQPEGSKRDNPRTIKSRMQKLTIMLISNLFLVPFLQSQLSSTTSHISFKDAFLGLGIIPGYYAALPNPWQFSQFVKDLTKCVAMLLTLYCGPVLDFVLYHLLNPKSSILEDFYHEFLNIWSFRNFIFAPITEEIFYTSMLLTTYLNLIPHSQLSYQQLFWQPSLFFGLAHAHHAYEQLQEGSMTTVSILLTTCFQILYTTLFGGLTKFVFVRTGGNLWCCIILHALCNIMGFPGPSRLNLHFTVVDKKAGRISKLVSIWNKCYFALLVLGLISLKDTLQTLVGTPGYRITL
MT1-MMP act inh – MT1-MMP (human) activation inhibition; P50281; HT1080 RFP-PRO-GFP cells, GFP/RFP ratio fluorescence, overnight; percent of plate control window, DMSO zero; GFP/RFP ratio change, % at 20 µM; hit rate 0.061% among 360,000; AID 651647;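 active means GFP/RFP ratio change of at least 30% with cell ATP level not reduced by more than half and red fluorescence within 50% of control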; further: strong numbers were not always called active
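Test system: HT1080 cells expressing an RFP-PRO-GFP fluorescent reporter construct / Compound dosing: single-point 20 µM compound, 1% DMSO / Schedule: cells overnight before dosing, compound overnight, 37 °C, 5% CO2 / Evaluation: GFP/RFP fluorescence ratio / Control set: DMSO and RFP-L50D-GFP cell wells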
UUG fidelity – modulators of start codon recognition fidelity in yeast; hit rate 0.13% among 350,000; AID 602363; activity score, % at 18.7 µM; S. cerevisiae UUG-firefly luciferase reporter, luminescence/redox ratio;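 active means replicate mean at a twofold rise or more, about +100% in these data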;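 further: firefly luciferase made from a UUG start codon reports start codon fidelity; reporter light over untreated wells divided by growth signal over untreated wells; some hits fall short of that in this replicate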
eIF4H FP inh – inhibitors of RNA binding by human eIF4H | eIF4H fluorescence polarization binding assay | inhibition, % at 35 µM | hit rate 0.94% among 290,000 | AID 2012 | Q15056;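 active means 50% or more with normal probe brightness, or confirmed in later tests; inconclusive means above 50% with abnormal brightness, or retests that disagree; inactive means below 50% or failed in later tests; about a fifth of its hits are not listed in these tables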;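 further: calls also rest on retests at 20 µM and on dose response follow-up; 0% = protein and probe with vehicle and 100% = probe without protein; strong numbers were not always called active; many hits fall short of the cut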
Env fusion inh – inhibitors of HIV Env-mediated cell fusion. inhibition, % at 12.3 µM. HeLa-JRFL Env/CEM21 cell fusion, luciferase. hit rate 1.1% among 360,000;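 active means mean replicate inhibition score of at least 50 and every replicate individually at or above 50; inconclusive means only one of the two criteria met; inactive means mean below 50 and not all replicates reaching 50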;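 further: 0% = plate neutral controls and 100% = maraviroc near 300 nM; one replicate is shown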
CSC inhib – blocks cancer stem cells | cancer stem cell-like cells viability, luminescence | hit rate 1.1% among 300,000 | inhibition, % at 7.5 µM;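 active means mean at 75% or more and at least half the replicates too; inconclusive means mean and replicates disagree; tested in HMLE shEcad cells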;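 further: 0% = median of negative and 100% = median of positive control wells; the first replicate is given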
PABP FP inh – PABP-poly(A) binding inhibition | P11940 | PABP-poly(A) RNA binding, fluorescence polarization | inhibition, % at 35 µM | hit rate 1% among 290,000;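 active means 50% or more with normal probe brightness, or confirmed in later tests; inconclusive means above 50% with abnormal brightness, or retests that disagree; inactive means below 50% or failed in later tests; about a fifth of its hits are not listed in these tables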;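 further: calls also rest on retests at 20 µM and on dose response follow-up; controls were probe without protein and protein plus probe with vehicle; some compounds called inactive have numbers as strong as hits; many hits fall short of the cut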
Target sequence (P11940 whole entry, looked up): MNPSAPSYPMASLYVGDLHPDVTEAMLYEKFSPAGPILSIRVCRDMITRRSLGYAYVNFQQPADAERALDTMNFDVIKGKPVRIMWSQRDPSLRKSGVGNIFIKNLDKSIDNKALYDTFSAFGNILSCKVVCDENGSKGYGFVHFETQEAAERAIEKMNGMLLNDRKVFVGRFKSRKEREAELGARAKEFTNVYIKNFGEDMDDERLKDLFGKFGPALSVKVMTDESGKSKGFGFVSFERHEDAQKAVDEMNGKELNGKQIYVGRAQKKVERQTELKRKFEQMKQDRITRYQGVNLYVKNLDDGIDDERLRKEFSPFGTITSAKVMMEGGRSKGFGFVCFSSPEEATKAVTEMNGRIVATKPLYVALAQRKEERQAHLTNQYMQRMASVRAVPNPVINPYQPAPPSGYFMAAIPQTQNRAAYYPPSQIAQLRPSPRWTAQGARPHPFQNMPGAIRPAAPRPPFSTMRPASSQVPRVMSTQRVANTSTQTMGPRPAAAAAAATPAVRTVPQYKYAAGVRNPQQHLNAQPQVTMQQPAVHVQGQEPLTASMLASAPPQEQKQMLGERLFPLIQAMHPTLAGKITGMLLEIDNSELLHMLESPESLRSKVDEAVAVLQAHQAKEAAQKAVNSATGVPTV
eIF4H FP inh retest – also measured in eIF4H FP inh; calls as there; inhibition, %; compound at 20 µM; confirmation average;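 mean of two retest wells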
PABP FP inh retest – second read-out of PABP FP inh, no call of its own (marks repeat the call); inhibition, %; compound at 20 µM; confirmation repeats;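 mean of two retest wells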
MT1-MMP act inh RFP – second read-out of MT1-MMP act inh, no call of its own (marks repeat the call); RFP signal change, %; measured here: RFP expression control read;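 0 = vehicle wells; hits needed this value within 50% of zero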
Starred values were filed as active, the others as inactive; i = inactive; ? = inconclusive; . = not tested or not shown. This is a subset; count on the stated rates, not on these rows.

Sample of the layout:
SMILES	Rce1 inhib	MT1-MMP act inh	MT1-MMP act inh RFP	UUG fidelity	eIF4H FP inh	Env fusion inh	CSC inhib	PABP FP inh	others
CCOC(=O)C1C(=O)C=C(c2ccc(Br)cc2)CC1c1ccco1 (configuration not stated)	i	-11	-10	-10	-6	-163	33	1
COc1ccccc1CNC(=O)Cc1c[nH]c2ccccc12	i	-1	2	-16	2	-3	2	8
CC(=O)Oc1ccc(C(=O)Nc2cc(C)on2)cc1	i	-2	1	-17	-7	-24	-6	-10
Cc1cccc(C2c3[nH]c4ccccc4c3CCN2Cc2cnn(-c3ccc(F)cc3)c2)n1 (configuration not stated)	i	-17	-5	.	-2	-71	-14	-10
N#C/C(=C1/C(=O)Nc2ccc(Br)cc21)c1ccccn1	i	2	4	.	3	10	-9	2

The list itself (from the top)
SMILES	Rce1 inhib	MT1-MMP act inh	MT1-MMP act inh RFP	UUG fidelity	eIF4H FP inh	Env fusion inh	CSC inhib	PABP FP inh	others
CCOC(=O)C1C(=O)C=C(c2ccc(Br)cc2)CC1c1ccco1 (configuration not stated)	i	-11	-10	-10	-6	-163	33	1
COc1ccccc1CNC(=O)Cc1c[nH]c2ccccc12	i	-1	2	-16	2	-3	2	8
CC(=O)Oc1ccc(C(=O)Nc2cc(C)on2)cc1	i	-2	1	-17	-7	-24	-6	-10
Cc1cccc(C2c3[nH]c4ccccc4c3CCN2Cc2cnn(-c3ccc(F)cc3)c2)n1 (configuration not stated)	i	-17	-5	.	-2	-71	-14	-10
N#C/C(=C1/C(=O)Nc2ccc(Br)cc21)c1ccccn1	i	2	4	.	3	10	-9	2
N/C(=N\OC(=O)c1cccc(Cl)c1)c1ccncc1	i	1	2	.	-8	-47	0	-2
Cc1ccc(C(=O)N2CCN(c3ccc(NC(=O)c4ccc(Br)o4)cc3)CC2)cc1	i	9	-10	-14	9	.	-11	0
COc1ccc(Cl)cc1NC(=O)NC(C)C(C)(C)C (configuration not stated)	i	-2	-3	.	-7	14	2	6
O=C(COC(=O)CC1CC2CCC1C2)Nc1cc([N+](=O)[O-])ccc1F (configuration not stated)	i	-1	2	-3	-3	16	-5	2
COc1ccc(NC(=O)COc2ccccc2)c(OC)c1	i	-1	2	-24	-1	-100	10	13
COc1ccc(OC(C)C(=O)NCc2cccnc2)cc1 (configuration not stated)	i	7	5	-11	-4	.	-8	0
Nc1nc2c(ncn2[C@@H]2O[C@H](CNS(=O)(=O)N3CCCC3)[C@@H](O)[C@H]2O)c(=O)[nH]1	.	0	-1	-18	.	4	.	.
CCOc1ccc(S(=O)(=O)NN2Cc3ccccc3C2=N)cc1	i	-2	-7	.	-3	3	-7	?
Cc1c(Cl)cccc1NC(=O)NNC(=O)CCc1ccccc1	i	-1	0	-8	-11	5	-3	-1
COc1ccc(S(=O)(=O)/C(C#N)=C/Nc2cccc(F)c2)cc1	i	1	-7	-13	-2	4	3	9
Cc1ccc(S(=O)(=O)Nc2ccc(S(=O)(=O)Nc3cc(C)nc(C)n3)cc2)cc1	i	3	5	1	-14	7	-7	16
O=C(CSc1nc2scc(-c3cccs3)c2c(=O)n1CCc1ccccc1)N1CCCC1	.	-1	3	4	.	9	.	.
O=C1C(Cl)=C(NCC2CCCO2)C(=O)N1CCc1ccccc1 (configuration not stated)	i	1	0	-15	14	-48	7	2
CSc1ccccc1NC(=O)C(=O)c1c[nH]c2ccccc12	i	-9	-7	.	-7	-41	26	61	eIF4H FP inh retest=28;PABP FP inh retest=8
Cn1c2c(c(=O)n(C)c1=O)CN(CCCN1CCOCC1)CN2	i	-3	1	-15	10	-33	0	1
NS(=O)(=O)c1cc2c(cc1Cl)NC(c1ccccc1OCC(=O)O)NS2(=O)=O (configuration not stated)	i	3	6	-4	-10	10	-10	11
CN(N=Cc1ccc([N+](=O)[O-])cc1)c1ccccn1	.	-2	1	-2	.	-77	.	.
CC(=O)N1CC=CC1(CC(C)C)C(=O)NCCN1CCOCC1 (configuration not stated)	i	-1	1	-9	5	-12	-1	1
N/C(=N\OC(=O)CC(c1ccccc1)c1ccccc1)c1cccnc1	i	-1	-10	.	-1	-33	22	2
O=C(COC(=O)CNC(=O)C12CC3CC(CC(C3)C1)C2)Nc1ccccc1	i	4	10	-8	-5	-16	-6	3

Continued, overlapping the part above by seven compounds.
SMILES	Rce1 inhib	MT1-MMP act inh	MT1-MMP act inh RFP	UUG fidelity	eIF4H FP inh	Env fusion inh	CSC inhib	PABP FP inh	others
CSc1ccccc1NC(=O)C(=O)c1c[nH]c2ccccc12	i	-9	-7	.	-7	-41	26	61	eIF4H FP inh retest=28;PABP FP inh retest=8
Cn1c2c(c(=O)n(C)c1=O)CN(CCCN1CCOCC1)CN2	i	-3	1	-15	10	-33	0	1
NS(=O)(=O)c1cc2c(cc1Cl)NC(c1ccccc1OCC(=O)O)NS2(=O)=O (configuration not stated)	i	3	6	-4	-10	10	-10	11
CN(N=Cc1ccc([N+](=O)[O-])cc1)c1ccccn1	.	-2	1	-2	.	-77	.	.
CC(=O)N1CC=CC1(CC(C)C)C(=O)NCCN1CCOCC1 (configuration not stated)	i	-1	1	-9	5	-12	-1	1
N/C(=N\OC(=O)CC(c1ccccc1)c1ccccc1)c1cccnc1	i	-1	-10	.	-1	-33	22	2
O=C(COC(=O)CNC(=O)C12CC3CC(CC(C3)C1)C2)Nc1ccccc1	i	4	10	-8	-5	-16	-6	3
COc1ccc(/C=N/NC(=O)c2cc(C(C)(C)C)[nH]n2)cc1COc1ccc(F)cc1F	i	1	-7	-18	0	-1	40	1
O=c1c2cnn(-c3ccccc3)c2nnn1Cc1ccccn1	i	2	-3	-12	-4	-27	-24	7
COc1ccc(OC)c(/C(O)=C/C(=O)C(=O)Nc2cc(C)ccc2OC)c1	i	3	3	-9	15	-4	-10	10
CCOC(=O)c1sc(NC(=O)C(OC(C)=O)c2ccccc2)nc1C (configuration not stated)	i	0	-6	.	-1	2	-1	-6
c1cncc(Nc2nc(-c3ccncc3)cs2)c1	i	-8	-6	-15	7	-57	6	-1
CC1C=CCC2C(=O)N(c3cccc(C(=O)NCc4ccccc4)c3)C(=O)C12 (configuration not stated)	i	0	-9	11	7	-21	-1	12
Cc1ccc(CNC(=O)CCS(=O)(=O)c2cc3c(cc2C)NC(=O)CO3)cc1	i	3	2	-5	-2	-125	2	-4
O=C1c2ccccc2C2(c3ccccc3)NCCN12 (configuration not stated)	i	-3	1	-11	-2	-1	-5	8
O=C(O)c1cccc(N/N=C/c2ccc(-c3ccccc3)cc2)c1	i	-1	1	.	32	-23	.	4
O=C(c1cnn(C(=O)COc2ccc(Cl)cc2)c1)c1ccccc1O	i	-4	-1	.	-7	-21	19	1
CCn1c(=O)c(C(=O)Nc2ccsc2C(=O)OC)c(O)c2ccccc21	i	.	.	.	5	.	25	-4
CCn1c(SCC(=O)NNC(=S)Nc2ccc(C)cc2)nnc1-c1ccc(Cl)cc1	i	4	2	-3	10	-24	-11	6
COC(=O)c1ccccc1NC(=O)CSc1nc(N)cc(=O)[nH]1	i	-1	1	.	90*	-24	-1	59	eIF4H FP inh retest=58*;PABP FP inh retest=32
Cc1cccc(CN(C)CCc2ccccn2)c1	i	-1	4	10	-3	-70	-1	-3
CS(=O)(=O)N1CCC(C(=O)Nc2ccccc2F)CC1	i	3	2	-14	4	.	-16	-6
CC(C)(C)N1C(=O)[C@H]2[C@@H](c3ccc(Br)cc3)N3C(=O)N(c4cccc(F)c4)C(=O)[C@@]3(Cc3ccccc3)[C@H]2C1=O	i	-3	-7	-23	.	?	-2	.
O=C(Nc1nc(-c2cc(F)ccc2F)cs1)c1cccc(N2C(=O)CCC2=O)c1	i	4	0	.	.	-73	0	.
COc1ccc(CN2C(=O)c3cccnc3C2=O)cc1S(=O)(=O)N1CCCCC1	i	-3	-7	-10	-5	-11	4	-6
Cc1ccccc1NS(=O)(=O)c1ccc2[nH]cc(C(=O)N(C)Cc3ccco3)c(=O)c2c1	i	-1	1	15	24	.	-5	12
CC(=O)NC(Cc1cccc(C)c1)C(=O)NC1CCN(c2ncccc2[N+](=O)[O-])CC1 (configuration not stated)	i	11	2	6	-5	.	-6	14
CC1(NC(=O)Cc2c(Cl)cccc2Cl)CCS(=O)(=O)C1 (configuration not stated)	.	0	5	-12	.	-3	.	.
CC(OC(=O)CCC(=O)c1cccs1)C(=O)NC1CCCCC1C (configuration not stated)	.	7	0	-14	.	-33	.	.
Cc1cccc(N2CCN(C(=O)c3ccc4c(c3)NC(=O)C(CSCc3cccc(F)c3)N4)CC2C)c1 (configuration not stated)	i	-46	4	-20	86	7	-15	53	eIF4H FP inh retest=-11;PABP FP inh retest=-9
O=C(COc1ccc(Br)cc1)N1CCNC1=O	i	-1	0	-12	7	-7	.	7
Cc1ccc(C)c(NC(=S)NC2CC3CCC(C2)N3Cc2ccco2)c1 (configuration not stated)	i	-2	-1	-25	1	-41	-4	-4

Carrying on.
SMILES	Rce1 inhib	MT1-MMP act inh	MT1-MMP act inh RFP	UUG fidelity	eIF4H FP inh	Env fusion inh	CSC inhib	PABP FP inh	others
CC(C)(C)[C@H]1C=C(C(=O)NCc2ccccc2)O[C@@H](OCCCCO)C1	i	3	2	-13	.	18	-3	.
COc1ccc(S(=O)(=O)N2CCOCC2)cc1NC(=O)CSc1nnc(NC2CC2)s1	.	-1	-1	-21	.	.	-8	.
COc1ccc(/C=C/C(=O)Nc2cccc(C(C)=O)c2)cc1	i	9	1	-22	4	-19	-1	5
O=C(NC1CCCC1)c1ccc(Cl)c(S(=O)(=O)N2CCCCC2)c1	i	1	-5	-10	0	13	-1	4
CCN(CC)c1ccc(NC(=O)COC(=O)c2ccc3ccccc3n2)cc1	.	.	.	-15	-3	-5	-8	-8
Cc1cccc(C)c1C(=NCCN(C)C)c1ccccc1	i	.	.	.	.	11	-2	.
CC(C)c1ccccc1NC(=O)CN1C(=O)c2ccccc2C1=O	.	0	7	-11	-6	2	-15	2
O=C(CCCc1nc2ccccc2s1)NNC(=O)CCN1CCN(Cc2ccccc2)CC1	i	3	-1	.	-3	2	-8	6
COc1cc(CNC(=O)C2CC2)ccc1OCc1ccccc1	.	-3	-4	-18	-26	-17	-8	6

Compound activity from PubChem BioAssay.
